Screens as filed in PubChem.
CDC25B-CDK2 inh – primary biochemical HTRF screen for blockers of M-phase inducer phosphatase 2 binding to CDK2/cyclin A; hit rate 0.72% among 94,000; HTRF CDC25B-CDK2/CyclinA binding, anti-His/anti-Flag; stronger effect = higher value; P30305+P24941; z-score (test concentration not listed); AID 1259370, 2018;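 also: score is relative to mean and SD of negative controls; strong numbers were not always called active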
HIV TAR-Tat – TAR RNA-Tat peptide displacers, HIV-1, primary screen, biochemical, FRET, FAM/TAMRA-labeled Tat; z-score (test concentration not listed); AID 1259389, 2018; HIV-1 TAR RNA, Tat peptide displacement FRET; stronger effect = higher value; hit rate 0.6% among 100,000;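 also: score is relative to mean and SD of negative controls; some compounds called inactive have numbers as strong as hits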
Numbers without * were called inactive; / = not tested or not shown.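 The calls were made as follows: active = z-score from 3 up in half or more of its runs; inactive = the rest.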 Rows are unselected; about 0.97% have a hit in one of these screens.

The line under a structure holds: CDC25B-CDK2 inh, HIV TAR-Tat
Cc1ccc(CN(C(=O)c2oc3cc(C)c(Cl)cc3c2C)C2CCS(=O)(=O)C2)o1 (stereo not drawn)
  -0.04, 2.5
Cn1ncc2c(NCc3cccc(Cl)c3)nc(NCCCO)nc21
  /, 1.2
Cc1ccccc1C(=O)OCc1cc(=O)n2nc(-c3cccs3)sc2n1
  /, -0.87
O=C1c2cccnc2C(Nc2ccc(F)cc2Cl)N1c1ccccc1 (stereo not drawn)
  /, 2.2
O=C(CCS(=O)(=O)c1ccc2c(c1)NC(=O)CS2)Nc1ccccn1
  /, -3
Cc1nnc2ccc(N3CCN(c4ccccc4)CC3)nn12
  0.91, 0.65
C=CCOC(=O)C1=C(C)N=C2SCCC(=O)N2C1c1ccc(OCC=C)cc1 (stereo not drawn)
  -2.1, /
CCOC(=O)C1=C(O)CCN(C)C1
  -0.49, 0.61
CN(CCNC(=O)NC1COc2ccccc2C1)Cc1ccccc1 (stereo not drawn)
  /, 1
CCN(CC)S(=O)(=O)c1ccc2c(c1)N(CC(=O)NCc1ccccn1)C(=O)CS2
  -0.73, /
CCOC(=O)C1CCN(C(=O)c2cc(S(=O)(=O)N3CCCC3)c[nH]2)CC1
  /, 2.7
CCOC(=O)C1=C(C)NC2=C(C(=O)CC(C)(C)C2)C1c1ccc(C(=O)OC)cc1 (stereo not drawn)
  -0.4, 0.39
Cc1cccc(OCC(O)Cn2c(C)nc3ccccc32)c1C (stereo not drawn)
  -1, 1.8
CCc1ccc(-c2cc(C)no2)cc1S(=O)(=O)Nc1ccc(F)cc1F
  /, 0.62
COC(=O)c1ccc(C2NC(=O)c3[nH]nc(-c4ccc(OC)cc4)c32)cc1 (stereo not drawn)
  /, -1.7
Cc1cccc(-c2nc3sc(C)cc3c(=O)o2)c1
  7.6*, 1.3
Cc1ccc(-c2nc(SCC(=O)OC3CCCC3)[nH]c(=O)c2C#N)cc1
  0.47, 1.7
COc1ccc(Cn2c(SCc3ccccc3F)nc3cccnc32)cc1
  /, 1.8
Cc1ccc(Nc2nc3ccccc3s2)cc1Cl
  -1.2, /
O=C(NC1CCCC1)c1ccc(-c2ccsc2)cc1
  /, 1.6
Cc1ccc(-c2csc3c2ncn2c(=O)n(CC(=O)NCc4ccccc4)nc32)cc1
  /, 0.64
COc1ccc(-c2cn(C(=O)c3ccc(Cl)cc3)nc2C)cc1
  -0.99, /
CCC(=O)Nc1sc(C(=O)OC)c(C)c1C(=O)OC
  -1.3, 0.53
COc1ccc2[nH]c3c(=O)n(CCCC(=O)NCC4CCCO4)c(=S)[nH]c3c2c1 (stereo not drawn)
  -0.39, /
CC1CC(=O)Nc2cc(S(=O)(=O)Nc3ccc(F)cc3)ccc2S1 (stereo not drawn)
  /, 0.98
Cc1cc(C)c2c(n1)nn1c(C)c(CCC(=O)Nc3ccc4c(c3)OCO4)c(C)nc21
  0.4, 1.7
COc1cc(NS(C)(=O)=O)c(OC)cc1Cl
  0.42, -0.68
Cc1ccc2n1CCN(C(=O)Nc1ccccc1F)C2C(C)C (stereo not drawn)
  /, 1.1
CC(NS(=O)(=O)c1ccc2c(c1)oc(=O)n2C)c1ccccc1 (stereo not drawn)
  -1.8, /
COc1cc(C2NC(=O)c3n[nH]c(-c4ccco4)c32)ccc1O (stereo not drawn)
  2.3, 0.64

Reformatted field by field: part of the list above.
Cc1ccccc1C(=O)OCc1cc(=O)n2nc(-c3cccs3)sc2n1
  CDC25B-CDK2 inh: / | HIV TAR-Tat: -0.87
O=C1c2cccnc2C(Nc2ccc(F)cc2Cl)N1c1ccccc1 (stereo not drawn)
  CDC25B-CDK2 inh: / | HIV TAR-Tat: 2.2

(more compounds)
The line under a structure holds: CDC25B-CDK2 inh, HIV TAR-Tat
O=C(NNC(=O)c1cccc2ccccc12)c1ccc2nsnc2c1
  -0.45, /
Cc1cc(C)n(Cc2c(C(=O)NCc3cccs3)noc2C)n1
  /, -0.5
Cn1c(SCC(=O)NC2CCCCC2)nc2c(c1=O)SCC2
  -1.6, -0.39
O=C1NC(c2cccc(F)c2)c2c1n[nH]c2-c1cccs1 (stereo not drawn)
  0.18, 0.05
COc1cc(Br)cc2cc3c(=O)n(-c4ccc(C)c(C)c4)nc-3oc12
  -0.1, 1.1
Cc1nn(-c2ccccc2)c(C)c1CCC(=O)O
  -0.9, 0.44
COc1ccccc1OCc1nc(-c2cccnc2)no1
  3, 0.18
CC(C)C1C(C#N)=C(N)Oc2nc(SCc3ccccc3)[nH]c(=O)c21 (stereo not drawn)
  -0.81, /
C=CCOC(=O)C1=C(C)Nc2nc(SCCC)[nH]c(=O)c2C1c1ccc(C)cc1 (stereo not drawn)
  -1.2, 2.7
c1ccc(Cc2nnc(-c3ccccc3)o2)cc1
  -1.8, -0.49
COc1ccc(CN2CCN(Cc3ccc4c(c3)OCO4)CC2)c(OC)c1
  -0.19, 0.74
COc1ccc(CCN2C(=O)CC(Sc3ncccc3C(=O)O)C2=O)cc1OC (stereo not drawn)
  1.8, -0.56
Cc1nc(-c2ccc(C)c(S(=O)(=O)N3CCN(c4ncccn4)CC3)c2)cs1
  /, 0.88
Cc1nc(NC2=NCN(CCc3ccccc3)CN2)nc2c(C)cccc12
  1.1, 0.67
O=C(OCc1ccco1)c1sc2sccc2c1Cl
  0.25, /
COc1cc(NC(=O)Cn2nc3c(cc2=O)CCCC3)cc(OC)c1
  /, 0.68
CCOC(=O)C1CCCN(S(=O)(=O)c2cc3[nH]c4c(c3cc2C)C(=O)CC(C)(C)C4)C1 (stereo not drawn)
  /, 0.02
CCOC(=O)C1CCCN(c2c(N3CCOCC3)c(=O)c2=O)C1 (stereo not drawn)
  -2.2, -0.86
CC1Cc2nc(SCC(=O)Nc3ccc4c(c3)OCO4)n(-c3ccc(F)cc3)c(=O)c2S1 (stereo not drawn)
  -0.72, 0.02
Cc1cn(COCCO)c(=O)[nH]c1=O
  0.08, 0.96
CCOC(=O)c1[nH]c(C)c(CN(CC2CCCO2)C(=O)C2CC2)c1C (stereo not drawn)
  /, 0.31
CCOC(=O)c1cn[nH]c1S(=O)(=O)N(C)c1ccccc1
  /, 0.58
O=C(O)CSc1c2c(nc3cc(C(=O)NCc4cccs4)ccc13)CCCC2
  -0.64, 0.41
Cc1ccc(-n2cc(-c3ccc4c(c3)OCO4)[nH]c2=S)c(C)c1
  -0.21, /
O=C(C1=C(N2CCN(c3ccccc3)CC2)c2ccccc2S1(=O)=O)N1CCOCC1
  /, 0.79
COc1ccc(C2CC(c3ccc(Br)cc3)=NN2C(=O)CSc2nncn2C)cc1 (stereo not drawn)
  0.17, 0.72
O=C(c1ccc2c(c1)sc1nc(-c3ccccc3)cn12)N1CCN(c2ccccn2)CC1
  /, 0.91
Cc1cc2c(cc1S(=O)(=O)CCC(=O)N1CCc3ccccc31)OCC(=O)N2
  /, 1.9
Cc1ccc(C(=O)Nc2sc3c(c2C(=O)N2CCC(C(N)=O)CC2)CCC(C(C)(C)C)C3)cc1 (stereo not drawn)
  0.6, 1.4
O=C(NC1CCCC1)C1CCCN(C(=O)N2CCOc3ccccc32)C1 (stereo not drawn)
  /, 1

As a short view, some entries already given:
The line under a structure holds: CDC25B-CDK2 inh, HIV TAR-Tat
Cc1ccc(-n2cc(-c3ccc4c(c3)OCO4)[nH]c2=S)c(C)c1
  -0.21, /
O=C(C1=C(N2CCN(c3ccccc3)CC2)c2ccccc2S1(=O)=O)N1CCOCC1
  /, 0.79
COc1ccc(C2CC(c3ccc(Br)cc3)=NN2C(=O)CSc2nncn2C)cc1 (stereo not drawn)
  0.17, 0.72
O=C(c1ccc2c(c1)sc1nc(-c3ccccc3)cn12)N1CCN(c2ccccn2)CC1
  /, 0.91
Cc1cc2c(cc1S(=O)(=O)CCC(=O)N1CCc3ccccc31)OCC(=O)N2
  /, 1.9
Cc1ccc(C(=O)Nc2sc3c(c2C(=O)N2CCC(C(N)=O)CC2)CCC(C(C)(C)C)C3)cc1 (stereo not drawn)
  0.6, 1.4
O=C(NC1CCCC1)C1CCCN(C(=O)N2CCOc3ccccc32)C1 (stereo not drawn)
  /, 1

(list continues)
The line under a structure holds: CDC25B-CDK2 inh, HIV TAR-Tat
Cn1c(C(=O)NC2CC2)cc2cc(S(=O)(=O)N3CCCCC3)ccc21
  /, 0.61
O=C(CSCc1cc(=O)n2nc(C3CCCCC3)sc2n1)Nc1ccc(F)cc1
  /, 0.56
CSc1nnc2c(n1)OC(c1ccc(C(=O)O)cc1)Nc1ccc(Br)cc1-2 (stereo not drawn)
  0.31, -0.04
O=C(CN1C(=O)c2ccccc2S1(=O)=O)NCCSCc1cccc(Cl)c1
  -0.44, 1.1
Cc1cc(C)cc(NC(=O)N2CCn3cccc3C2C)c1 (stereo not drawn)
  /, -4.5
Cc1ccc(C)c(NCC(O)Cn2nnnc2-c2ccccc2)c1 (stereo not drawn)
  -1.5, -0.4
Oc1ccccc1C(Nc1ccccn1)c1ccc2cccnc2c1O (stereo not drawn)
  1.1, 2.7
Cc1ccc(CNS(=O)(=O)c2ccc(-c3cnc(C4CC4)o3)cc2)cc1
  /, 1.1
CCOC(=O)c1cnc(SCC(=O)N2CCC(C)CC2)nc1N
  /, 0.78
COCCOC(=O)C1=C(C)NC2=C(C(=O)C(C(=O)OC)C(C)C2)C1c1ccccc1C (stereo not drawn)
  0.04, 0.33
CC(C)c1ccc(NC(=O)C2CC3CCCN3C23C(=O)N(C)c2ccccc23)cc1 (stereo not drawn)
  /, 0.4
Cn1c(=O)c2c(SCC(=O)N3CCc4ccccc43)nc(-c3cccc(F)c3)nc2n(C)c1=O
  /, 0.54
O=C(Nc1ccc2nc(NS(=O)(=O)c3ccccc3)sc2c1)C1CCC1
  /, -1.4
CC1CCN(S(=O)(=O)c2ccc3c(c2)C(C(C)C)C(=O)N3)CC1 (stereo not drawn)
  /, 2.6
Cc1ccccc1C1C2=C(Nc3c1c(=O)[nH]c(=O)n3C)c1ccccc1C2=O (stereo not drawn)
  -1.9, 2
Cc1cc2c(cc3c(=O)n(CC(=O)N4CCCCC4C)ncn32)s1 (stereo not drawn)
  -0.71, /
CCOc1cc(-c2cc(N)n(S(=O)(=O)c3ccc(C)cc3)n2)cc(OCC)c1OCC
  -0.72, /
Cc1nc2c(c(C)nn2C(C)(C)C)c(C)c1CCC(=O)NCCC(C)C
  -0.63, 2.2
COc1cccc(N2C(=O)C3CCCN3C2c2ccc(Br)cc2)c1 (stereo not drawn)
  -0.57, -1.7
CCOC(=O)c1cc(Sc2ccccc2NC(=O)c2cccs2)cc(C(=O)OCC)n1
  -1.8, /
C=CCN1C(=O)C2(/C(=C(/O)c3ccc(C)c(F)c3)C(=O)C(=O)N2CCOC)c2ccccc21 (stereo not drawn)
  -2.7, 1
O=C(O)CCc1nc2ccccc2[nH]c1=O
  -2, -0.97
CCCN1C(=O)c2[nH]nc(-c3ccccc3O)c2C1c1cccc(Br)c1 (stereo not drawn)
  0.63, 0.06
Cc1csc(NC(=O)Cn2cnc(S(=O)(=O)N3CCOCC3)c2)n1
  /, 0.26
CCOC(=O)CN1C(=O)C(O)(c2c(C)[nH]c3ccccc23)c2ccccc21 (stereo not drawn)
  0.51, 1.6
Cc1ccc(-n2nnc(-c3nc(-c4ccc5c(c4)OCO5)no3)c2N)cc1
  /, 0.31
CCCc1nc2cc3c(cc2[nH]1)n(C)c(=O)n3C
  0.64, 0.86
CCC(C)(C)C1CCc2sc3ncnc(NCCN4CCOCC4)c3c2C1 (stereo not drawn)
  -2, /
Cc1ccc(/C(O)=C2/C(=O)C(=O)N(CCN3CCOCC3)C23C(=O)N(C)c2ccccc23)cc1F (stereo not drawn)
  -0.68, 1.5
C=CCSc1ncccc1C(=O)O
  /, 2.7
CCOC(=O)N1CCC(N2CC34C=CC(O3)C(C(=O)O)C4C2=O)CC1 (stereo not drawn)
  -1.1, 0.8
CC(C)CCn1c(C2CC(=O)N(c3ccccc3Cl)C2)nc2ccccc21 (stereo not drawn)
  -0.23, 1.8
CSC1=N/C(=C\c2ccc(Br)cc2)C(=O)S1
  3, 0.23
Cc1nc2c3ccccc3n3c(CCCC(=O)N4CCC(C(N)=O)CC4)nnc3n2n1
  0.97, -0.98
COc1ccc(CNc2nc(NCCO)nc3c2cnn3C)cc1
  /, 1.2
CCOc1ccccc1-n1nnc2c(=O)[nH]cnc21
  0.05, -0.33
O=c1[nH]n(-c2ccccc2)c(=O)c2ncccc12
  -1.9, 3
COc1ccc(-n2c(SCc3nc(-c4cccs4)no3)nnc2-c2ccccc2)cc1
  -0.49, 2.2
CCOC(=O)c1noc2ncnc(NCCc3ccsc3)c12
  /, 0.46
CCOc1ccccc1Nc1ccc2cc(S(=O)(=O)N3CCCCC3)ccc2n1
  /, 0.95
CCc1nc2nc(C)c(NS(=O)(=O)c3ccc(Cl)cc3)c(=O)n2[nH]1
  -2.4, -0.37
O=C1CCc2cc(S(=O)(=O)NC(Cc3ccccc3)C(=O)N3CCCCC3)ccc2N1 (stereo not drawn)
  -0.77, /
CN(C)c1ccc(/C=C/C2=Nc3ccccc3C2(C)C)cc1
  0.16, -5.9
Cc1cc(=O)[nH]c(SCC(=O)c2ccc(C(C)C)cc2)n1
  0, /
Cc1cc(C)n(CC(=O)Nc2ccc(Br)cc2)c(=O)n1
  -0.87, 2.2
O=S(=O)(c1ccc(F)cc1)N1CCN(c2cccc(C(F)(F)F)c2)CC1
  -0.29, /
O=C(CSc1nc2c(oc3ccccc32)c(=O)[nH]1)Nc1cccc(Cl)c1
  -1.3, -1.6
CCOc1ccc(CCNc2nc3ccc(C)cc3n3nnnc23)cc1OCC
  -2.3, -0.54
Cc1cc2c(nc1C)sc1c(=O)n(Cc3ccco3)nnc12
  -2.5, 2.7
CC(C)(C)N[C@H]1CS(=O)(=O)C[C@@H]1S(=O)(=O)c1ccccc1
  -0.12, 19*
